HNF4A DNA FP – change in binding of human HNF4 alpha to DNA; activity change, % at 10 µM; HNF4a-FITC DNA binding, fluorescence polarization, 1 h; AID 1224865; 0.3% of 360,000 active; P41235; in the data active = activity change above about 30%, passing the limit was not always enough;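 also: controls were the assay level and a saturating level of protein; the project sought stronger binding though the title names inhibitors; some compounds called inactive have numbers as strong as hits; positive values seem to mean higher polarization but the record does not say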
E coli growth – blocks Escherichia coli growth; OD600, 23 h; hits give low values; OD600 absorbance (concentration not given with the values); 0.21% of 330,000 active; AID 1053175;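 active = OD600 absorbance below the run mean of sample wells minus 3.6 SD, in any replicate, cut at about 0.56 in these data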;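 also: stock transfer was 300 nL into about 60 µL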
Vif TR-FRET – inhibitors of Vif binding to APOBEC3G peptide, primary screen, biochemical, TR-FRET, GST-Vif 1-94, biotin-A3G peptide, dose response retest (AID 1117319). TR-FRET GST-Vif / biotin-A3G peptide binding; higher % means a stronger effect; test concentration not given here; strong numbers were not always called active. 0.57% of 260,000 active. one-dose inhibition, %; IC50 in µM for titrated hits;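 active = above the screen mean plus three standard deviations and confirmed in dose response; inconclusive = results disagree or hit not tested in dose response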;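 also: Vif residues 1-94 fused to GST binding biotinylated APOBEC3G peptide 110-148; 0% = full assay without inhibitor and 100% = GST in place of GST-Vif; retest series ran down from 100 µM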
FGF22 binding – shifts melting point of recombinant human FGF22 | Q9HCT0 | recombinant FGF22 thermal shift, SYPRO orange fluorescence; percent of sucrose octasulfate shift, DMSO zero | calls only at 9.99 µM | 1.5% of 340,000 active | AID 651658;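 active = melting point raised past a set limit in the mean and every replicate; inconclusive = no clear call; three in four hits are not shown here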
Target sequence (Q9HCT0 whole entry, looked up): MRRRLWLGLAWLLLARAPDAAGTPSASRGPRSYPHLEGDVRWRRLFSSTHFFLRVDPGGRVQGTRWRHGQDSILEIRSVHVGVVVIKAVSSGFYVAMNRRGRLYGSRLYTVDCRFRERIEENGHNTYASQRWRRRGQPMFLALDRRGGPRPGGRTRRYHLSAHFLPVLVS
MLL AF4-AF9 inh – MLL-AF4/AF9 protein interaction inhibition | P42568 | AlphaScreen, biotin-AF4 peptide binding to FLAG-AF9 | inhibition, % at 10 µM | 0.47% of 350,000 active | AID 651704;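 active = every replicate reaching a set inhibition limit, whatever the replicate mean, cut at about 25% in these data; inconclusive = mean inhibition reaches that limit but some replicates miss it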;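 also: 0% = plate neutral control median and 100% = total signal loss; the record names both 10 and 1 µM as test concentration; the first replicate is given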
Target sequence (P42568 whole entry, looked up): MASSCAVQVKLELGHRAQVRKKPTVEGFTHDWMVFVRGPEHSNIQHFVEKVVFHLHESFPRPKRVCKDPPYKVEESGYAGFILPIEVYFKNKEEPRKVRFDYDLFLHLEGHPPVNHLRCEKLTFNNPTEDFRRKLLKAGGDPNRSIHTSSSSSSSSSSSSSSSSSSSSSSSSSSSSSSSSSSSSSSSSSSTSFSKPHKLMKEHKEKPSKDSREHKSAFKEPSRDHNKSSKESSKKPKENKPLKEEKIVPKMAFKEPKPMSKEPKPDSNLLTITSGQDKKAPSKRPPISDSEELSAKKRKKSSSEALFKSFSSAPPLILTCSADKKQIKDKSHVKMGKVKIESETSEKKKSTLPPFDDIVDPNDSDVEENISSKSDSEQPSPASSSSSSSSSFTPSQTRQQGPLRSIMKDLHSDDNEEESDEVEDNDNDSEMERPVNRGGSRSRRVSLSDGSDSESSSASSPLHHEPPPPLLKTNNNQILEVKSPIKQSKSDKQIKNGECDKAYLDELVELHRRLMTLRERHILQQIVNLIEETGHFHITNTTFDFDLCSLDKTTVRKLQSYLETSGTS
ALR inh – blocks human ALR sulfhydryl oxidase activity | AID 485317 | purified ALR, DTT oxidation, H2O2 HRP-luminol luminescence | inhibition, % (no concentration beside the values) | 3.8% of 290,000 active;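 active = mean and each replicate at 75% or more; inconclusive = only one of the two met; inactive = neither met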;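 also: stock transfer was 7.5 nL into about 7.5 µL; 0% = neutral wells and 100% = wells with inactivated enzyme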
Target sequence (P55789 whole entry, looked up): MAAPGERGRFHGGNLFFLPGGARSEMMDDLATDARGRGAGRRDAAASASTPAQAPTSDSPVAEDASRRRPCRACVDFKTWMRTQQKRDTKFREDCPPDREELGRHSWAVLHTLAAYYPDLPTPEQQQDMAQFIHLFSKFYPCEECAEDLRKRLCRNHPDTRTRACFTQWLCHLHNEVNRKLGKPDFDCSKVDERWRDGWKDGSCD
Ecoli rRNA inh – inhibitors of bacterial rRNA selective over humanized ribosomes; E. coli WT GFP vs humanized-ribosome RFP mutants, fluorescence, 24 h; hits give low values; DMSO median 0, no signal -100; GFP signal change (wild-type ribosome), % (no concentration beside the values); 1.6% of 350,000 active; AID 720706;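 active = significant combined selectivity score with lowered wild-type GFP, culture density cut under 30%, mutant RFP and density less affected; inactive = any of these conditions unmet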; also: one replicate is shown; some compounds called inactive have numbers as strong as hits
Ecoli rRNA inh OD600 – recorded beside Ecoli rRNA inh, whose call it bears; OD600 change, %; measured here: OD600 growth;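 optical density of the mix in the first replicate; 0 = DMSO median and -100 = no signal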
Ecoli rRNA inh RFP – second read-out of Ecoli rRNA inh, no call of its own (marks repeat the call); RFP signal change, %; measured here: RFP humanized mutant strains;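 first replicate; 0 = DMSO median and -100 = no signal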
Active calls of the source: *; i = inactive; u = inconclusive; x = no result given. The list is partial; the hit share may differ from the screen's.

SMILES	HNF4A DNA FP	E coli growth	Vif TR-FRET	FGF22 binding	MLL AF4-AF9 inh	ALR inh	Ecoli rRNA inh	Ecoli rRNA inh OD600	Ecoli rRNA inh RFP
CC1CCC(Nc2nnnn2-c2ccccc2)CC1 (configuration not stated)	-5.5	0.68	-3%	x	x	-15	x	x	x
Cc1cc(NC(=O)CSCC(=O)NC(C)c2ccccc2)no1 (configuration not stated)	-1.9	0.67	x	i	0.0	-12	14	16	-1.2
Cn1c(/C=C/c2ccccc2)nc2ccccc2c1=O	-3.4	0.63	x	i	0.6	-1	11	40	5.7
Cc1ccc(-n2nnnc2SCC(=O)c2ccc3c(c2)NC(=O)CO3)c(C)c1	-4.5	0.73	-43%	x	x	-5	x	x	x
Cc1noc(C)c1C(=O)N(C)C[C@H]1OCc2ccccc2-c2c(n(C)c3ccccc23)C(=O)N([C@H](C)CO)C[C@H]1C	x	x	x	i	-0.9	x	5	4	-2.5
CCN=c1sc(C(=O)NCCc2ccccc2)cc(=O)n1CC	6.2	0.71	-2%	x	x	64	x	x	x
O=C(OCc1ccccc1)N1CCC2CC1c1cc(-c3cc4ccccc4o3)ccc12 (configuration not stated)	-1.2	x	-3%	i	-3.9	x	6	12	-1.4
COC(=O)c1ccc(NC(=O)c2cc[n+]([O-])cc2)cc1	-1.2	0.7	x	i	-0.2	-2	-8	-7	-2.8
Cc1ccc(C2NC(=O)CCC2[N+](=O)[O-])cc1 (configuration not stated)	2.5	0.65	21%	i	-1.1	-3	21	15	-0.7
CCN(CC)CCCCN1c2ccccc2Sc2ccccc21	4.6	0.66	9%	i	25*	99*	-18	-19	3.1
CSc1ccc(CN2CCC(n3nccc3NC(=O)c3ccccc3C)CC2)cc1	-0.1	0.7	x	i	7.3	-2	-1	-5	-1.7
O=C(NCc1cccnc1)c1cccc(Cl)c1	0.1	0.75	-1%	x	x	0	x	x	x
O=S1(=O)N=C(N2CCN(c3ccc(F)cc3)CC2)c2ccccc21	0.9	0.74	-7%	x	x	0	x	x	x
Cc1noc(C)c1NC(=O)N(C)C[C@@H]1Oc2cc(C#CCC(C)C)ccc2S(=O)(=O)N([C@H](C)CO)C[C@H]1C	x	x	x	i	30*	x	1	-4	1.6
CC(C(=O)NCC1CCCCC1)N(C)Cc1ccc(Cl)cc1 (configuration not stated)	-0.9	0.69	19%	i	2.5	-2	-36	-48	-3.1

Complete entries from above:
`O=C(OCc1ccccc1)N1CCC2CC1c1cc(-c3cc4ccccc4o3)ccc12` (configuration not stated) is listed as HNF4A DNA FP: -1.2; E coli growth: x; Vif TR-FRET: -3%; FGF22 binding: i; MLL AF4-AF9 inh: -3.9; ALR inh: x; Ecoli rRNA inh: 6; Ecoli rRNA inh OD600: 12; Ecoli rRNA inh RFP: -1.4
`CCN=c1sc(C(=O)NCCc2ccccc2)cc(=O)n1CC` is listed as HNF4A DNA FP: 6.2; E coli growth: 0.71; Vif TR-FRET: -2%; FGF22 binding: x; MLL AF4-AF9 inh: x; ALR inh: 64; Ecoli rRNA inh: x; Ecoli rRNA inh OD600: x; Ecoli rRNA inh RFP: x
`Cc1noc(C)c1NC(=O)N(C)C[C@@H]1Oc2cc(C#CCC(C)C)ccc2S(=O)(=O)N([C@H](C)CO)C[C@H]1C` is listed as HNF4A DNA FP: x; E coli growth: x; Vif TR-FRET: x; FGF22 binding: i; MLL AF4-AF9 inh: 30*; ALR inh: x; Ecoli rRNA inh: 1; Ecoli rRNA inh OD600: -4; Ecoli rRNA inh RFP: 1.6

Continuation.
SMILES	HNF4A DNA FP	E coli growth	Vif TR-FRET	FGF22 binding	MLL AF4-AF9 inh	ALR inh	Ecoli rRNA inh	Ecoli rRNA inh OD600	Ecoli rRNA inh RFP
COC(=O)CNC(=O)CSc1nnc(-c2ccc(OC)cc2)n1CC(C)C	-0.4	0.74	1%	x	x	-3	x	x	x
CCC(=O)N1Cc2cc(C(=O)N3CCCCC3)nc(-c3cccc(-c4cccnc4)c3)c2[C@H]1CCO	x	x	x	i	0.6	x	-3	7	-2.5
O=[N+]([O-])c1cc(Br)c(OCc2nnc(-c3ccccc3)o2)c(Br)c1	5.4	0.65	3%	i	1.5	-3	-21	-21	-0.6
Cc1ccc(C)c(SCc2nc3sc(C(=O)O)c(C)c3c(=O)[nH]2)c1	0.1	0.65	0%	i	-5.3	2	3	-2	-2.1
CNC[C@H]1Oc2ccc(NC(=O)c3ccncc3)cc2C(=O)N([C@@H](C)CO)C[C@@H]1C	x	x	x	i	-6.3	x	2	4	1.1
COc1ccc(S(=O)(=O)NC(Cc2ccccc2)C(=O)O)cc1 (configuration not stated)	1.2	0.69	-7%	i	-3.8	-4	14	17	1.2
O=C(CNC(=O)c1ccccc1F)N/N=C/c1cc(Br)ccc1OCc1ccccc1	1.3	x	x	x	-0.9	-10	-12	-12	-3.4
O=C(Nc1cc(C(=O)N2CCCC2)ccc1N1CCCC1)c1ccccc1	-2.8	0.7	-3%	x	x	14	x	x	x
O=C(NC1CCCc2ccccc21)c1cccc(S(=O)(=O)N2CCN(c3ccccc3)CC2)c1 (configuration not stated)	-3.0	0.76	6%	x	x	0	x	x	x
Cc1onc(-c2ccccc2)c1C(=O)Nc1sc2c(c1C#N)CCC(C)C2 (configuration not stated)	-2.0	0.72	-19%	i	2.6	4	-1	1	-2.7
Cc1ccc2c(COC(=O)c3ccccc3OC(F)F)cc(=O)oc2c1	2.4	0.67	7%	i	-3.8	3	11	11	2.5
CN(Cc1nc2ccccc2c(=O)[nH]1)C(=O)C1CC(=O)N(c2cccc3ccccc23)C1 (configuration not stated)	-2.5	0.7	2%	i	0.7	-6	2	-8	0.3
COCCN(C(=O)CNC(=O)c1ccco1)C(C(=O)NC1CCCC1)c1ccc(F)cc1 (configuration not stated)	3.2	0.59	x	i	-0.8	10	9	4	1.7
CC(C)(C)NC(=O)C(OC(=O)c1cccs1)c1ccccc1 (configuration not stated)	1.7	0.65	10%	i	-0.5	-16	-4	1	-2.4
OC(COCc1ccccc1)CN1CCCC1 (configuration not stated)	4.0	0.73	2%	x	x	-1	x	x	x
CN(c1ccccc1)S(=O)(=O)c1cccc(NC(=O)Nc2ccc(Cl)cc2C#N)c1	0.5	0.71	-1%	x	x	-5	x	x	x
CCN(CC)S(=O)(=O)c1ccc(C)c(NC(=O)CN2CCN(C)CC2)c1	-0.7	0.67	x	i	-0.9	-8	11	6	-4.0
NC1=NC(=O)CC(C(=O)NCCc2ccccc2)S1 (configuration not stated)	0.9	0.74	1%	x	x	-4	x	x	x
COc1ccc(Nc2nc(C(=O)NCc3ccco3)cs2)cc1	1.1	0.64	-2%	i	6.9	40	-44*	-32*	-12*
Cc1ccc(S(C)(=O)=NC(=O)NC(=O)c2c(F)cccc2Cl)cc1 (configuration not stated)	3.9	0.68	11%	i	x	1	13	7	1.9
COc1ccc(S(=O)(=O)N2CCOC2CNC(=O)C(=O)NCCCN2CCCC2=O)cc1OC (configuration not stated)	-4.2	x	0%	i	-0.8	x	21	21	2.2
O=C(Nc1cccc2c1[nH]c(=O)c1ccccc12)C(F)(F)F	1.5	x	0%	i	-1.0	x	11	14	1.4
COc1ccccc1CNCCS(=O)(=O)NCc1ccccc1	0.7	x	x	i	-3.1	x	7	6	-6.2
CCC(CC)C(=O)Nc1ccccc1-n1cccc1	-1.6	0.68	-8%	x	x	-18	x	x	x
N#Cc1cn(-c2ccccc2)nc1-c1ccc2c(c1)OCCO2	-0.6	0.73	-23%	x	x	0	x	x	x
CCCNC(=O)N1C[C@@H]2[C@H](c3ccccc31)[C@@H](CO)N2C(=O)CN1CCOCC1	x	x	x	i	0.3	x	3	3	-0.4
COc1ccc(CN2C[C@@H](O)COC[C@@H]3O[C@@H](CC(=O)NCc4ccccc4Cl)CC[C@H]32)cc1	x	x	x	i	1.1	x	3	-7	-0.6
CCN(CC)S(=O)(=O)c1ccc2c(c1)c(=O)c(C(=O)N1CCOCC1)cn2C	0.7	0.7	9%	x	x	-20	x	x	x
COc1cc(C)ccc1OCCCCN1CC(C)OC(C)C1 (configuration not stated)	-1.2	0.69	4%	x	x	-2	x	x	x
Cc1cc(C)c(C(N)=O)c(Cl)n1	-2.8	0.68	x	i	-2.0	x	11	13	1.2

Sorted by the number under Ecoli rRNA inh RFP (smallest number first): some entries from above
SMILES	HNF4A DNA FP	E coli growth	Vif TR-FRET	FGF22 binding	MLL AF4-AF9 inh	ALR inh	Ecoli rRNA inh	Ecoli rRNA inh OD600	Ecoli rRNA inh RFP
COc1ccc(Nc2nc(C(=O)NCc3ccco3)cs2)cc1	1.1	0.64	-2%	i	6.9	40	-44*	-32*	-12*
CCN(CC)S(=O)(=O)c1ccc(C)c(NC(=O)CN2CCN(C)CC2)c1	-0.7	0.67	x	i	-0.9	-8	11	6	-4.0
Cc1cc(C)c(C(N)=O)c(Cl)n1	-2.8	0.68	x	i	-2.0	x	11	13	1.2

Additional results follow:
SMILES	HNF4A DNA FP	E coli growth	Vif TR-FRET	FGF22 binding	MLL AF4-AF9 inh	ALR inh	Ecoli rRNA inh	Ecoli rRNA inh OD600	Ecoli rRNA inh RFP
CN(CC(=O)Nc1ccc(F)c(F)c1F)C(=O)CCN1C(=O)C2CC=CCC2C1=O (configuration not stated)	1.0	x	2%	i	-0.2	x	x	x	x
COc1ccc(-c2c3c(=O)n(C)c(=O)n(C)c3cn2Cc2ccccn2)cc1	0.2	0.67	-2%	x	x	-12	x	x	x
CCC(=O)N1CCCC1(C)C(=O)Nc1ccc2c(c1)CCN2C(C)=O (configuration not stated)	0.3	x	x	i	-9.6	x	17	17	1.7
CO[C@H]1CN(C)C(=O)c2cc(NC(=O)NC(C)C)ccc2OC[C@H](C)N(C)C[C@H]1C	x	x	x	i	-2.6	x	-2	-1	-0.1
COC(=O)c1cnn(C(=O)c2cc(OC)ccc2Br)c1N	6.2	0.68	10%	x	x	-4	x	x	x
COC(=O)[C@@]12C[C@@H](CC(=O)NCC3CCCCC3)C(=O)N(Cc3ccc4c(c3)OCO4)C1=CCC(C)(C)C2	5.0	x	x	i	0.1	x	10	6	3.1
CN1CCN(CC(=O)N/N=C/c2ccc(F)c(F)c2)CC1	-4.2	x	1%	x	x	-12	x	x	x
CC(=O)c1sc(-c2ccccn2)nc1C	x	0.66	28%	x	x	-4	x	x	x
COc1ccc(S(=O)(=O)NCc2cccnc2)cc1NC(=O)c1ccc(Cl)cc1	-0.7	0.7	-7%	i	7.5	1	-7	-13	0.0
COc1ccccc1-c1noc(Cn2cc(S(=O)(=O)N3CCCC3)ccc2=O)n1	0.7	0.65	7%	i	1.1	-20	-2	6	3.9
N#Cc1ccccc1OCC(=O)OCC(=O)NC1CC1	3.4	0.66	x	i	-6.5	0	2	11	-2.4
Cc1c(CCC(=O)O)c(=O)oc2c(C)c3occ(-c4ccc(Cl)cc4)c3cc12	-3.9	0.7	-2%	i	-1.5	56	-21	-20	-2.2
O=Cc1c(Cl)nc2ccccn2c1=O	0.2	0.59	27%	i	x	48	2	-4	1.5
CC(=O)c1ccc(S(=O)(=O)Nc2ccc(C(=O)NC3CC3)cc2)cc1	4.8	0.67	3%	i	-1.8	x	3	1	-2.4
C=C(C)Cn1c(SCCCO)nc2c1c(=O)[nH]c(=O)n2C	1.1	0.71	u	x	x	1	x	x	x
CC1Oc2ccccc2N(CC(=O)Nc2ccc(F)cc2)C1=O (configuration not stated)	1.5	0.63	x	i	-3.1	x	3	2	-3.0
COc1ccc(S(=O)(=O)N2C[C@H](O)COC[C@H]3O[C@H](CC(=O)NCCCN(C)C)CC[C@@H]32)cc1	x	x	x	i	-1.6	x	0	6	-2.7
CCCCNC(=O)NNC(=O)c1ccoc1C	0.7	0.7	u	x	x	-2	x	x	x

Screening data deposited in PubChem by several laboratories.
